CSC inhib – blocks cancer stem cells; cancer stem cell-like cells viability, luminescence; 1.1% of 300,000 active; inhibition, % at 7.5 µM;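 active = mean at 75% or more and at least half the replicates too; inconclusive = mean and replicates disagree; tested in HMLE shEcad cells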;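 note: 0% = median of negative and 100% = median of positive control wells; the first replicate is given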
Rce1 inhib – yeast Ras-converting enzyme inhibition; calls only; 0.27% of 290,000 active; yeast membranes, quenched prenylated peptide cleavage fluorescence;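 active = fall in fluorescence gain of 50% or more versus controls, with final raw signal at or below 3038400; inconclusive = same 50% fall but final raw signal above 3038400; inactive = fall in fluorescence gain under 50%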;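 note: plate controls were neutral control wells for no effect and wells lacking membranes for full effect; tested at 10 µM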
Env fusion inh – blocks HIV Env-driven cell-cell fusion | HeLa-JRFL Env/CEM21 cell fusion, luciferase | inhibition, % at 12.3 µM | 1.1% of 360,000 active;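 active = mean replicate inhibition score of at least 50 and every replicate individually at or above 50; inconclusive = only one of the two criteria met; inactive = mean below 50 and not all replicates reaching 50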;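 note: 0% = plate neutral controls and 100% = maraviroc near 300 nM; one replicate is shown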
eIF4H FP inh – inhibitors of RNA binding by human eIF4H | Q15056 | eIF4H fluorescence polarization binding assay | inhibition, % at 35 µM | 0.94% of 290,000 active | AID 2012;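 active = 50% or more with normal probe brightness, or confirmed in later tests; inconclusive = above 50% with abnormal brightness, or retests that disagree; inactive = below 50% or failed in later tests; about a fifth of its hits are not listed in these tables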;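 note: calls also rest on retests at 20 µM and on dose response follow-up; 0% = protein and probe with vehicle and 100% = probe without protein; strong numbers were not always called active; many hits fall short of the cut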
PABP polyA inh – blocks human PABP binding to poly(A) RNA | 1% of 290,000 active | fluorescence polarization | inhibition, % at 35 µM;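 active = 50% or more with normal probe brightness, or confirmed in later tests; inconclusive = above 50% with abnormal brightness, or retests that disagree; inactive = below 50% or failed in later tests; about a fifth of its hits are not listed in these tables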;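 note: calls also rest on retests at 20 µM and on dose response follow-up; controls were probe without protein and protein plus probe with vehicle; some compounds called inactive have numbers as strong as hits; many hits fall short of the cut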
Target sequence (P11940 whole entry, looked up): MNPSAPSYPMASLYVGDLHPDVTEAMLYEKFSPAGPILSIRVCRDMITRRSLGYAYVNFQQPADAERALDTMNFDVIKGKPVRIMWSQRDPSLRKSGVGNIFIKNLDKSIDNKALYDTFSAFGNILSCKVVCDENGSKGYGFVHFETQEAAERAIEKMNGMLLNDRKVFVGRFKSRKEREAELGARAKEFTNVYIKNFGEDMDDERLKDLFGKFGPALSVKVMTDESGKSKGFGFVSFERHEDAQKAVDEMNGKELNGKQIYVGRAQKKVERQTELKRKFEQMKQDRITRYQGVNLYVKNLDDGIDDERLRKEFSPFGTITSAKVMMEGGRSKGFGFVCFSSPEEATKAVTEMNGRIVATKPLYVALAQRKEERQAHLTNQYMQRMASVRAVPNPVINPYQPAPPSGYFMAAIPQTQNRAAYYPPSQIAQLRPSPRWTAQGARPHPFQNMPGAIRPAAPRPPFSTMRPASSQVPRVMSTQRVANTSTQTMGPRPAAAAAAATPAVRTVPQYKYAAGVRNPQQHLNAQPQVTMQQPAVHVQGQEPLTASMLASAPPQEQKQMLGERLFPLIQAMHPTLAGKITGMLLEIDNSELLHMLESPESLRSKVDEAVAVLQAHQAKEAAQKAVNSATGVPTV
MT1-MMP act inh – inhibitors of human MT1-MMP activation. 0.061% of 360,000 active. HT1080 RFP-PRO-GFP cells, GFP/RFP ratio fluorescence, overnight; percent of plate control window, DMSO zero. GFP/RFP ratio change, % at 20 µM;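 active = GFP/RFP ratio change of at least 30% with cell ATP level not reduced by more than half and red fluorescence within 50% of control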; note: strong numbers were not always called active
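Assay system: RFP-PRO-GFP reporter HT1080 cells; read-out basis: GFP/RFP fluorescence ratio; benchmarks: DMSO wells and RFP-L50D-GFP cells; doses: 20 µM single dose, 1% DMSO; schedule: overnight cell settling, then overnight compound exposure, 37 °C, 5% CO2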
UUG fidelity – modulators of start codon recognition fidelity in yeast; S. cerevisiae UUG-firefly luciferase reporter, luminescence/redox ratio; activity score, % at 18.7 µM; 0.13% of 350,000 active; AID 602363;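 active = replicate mean at a twofold rise or more, about +100% in these data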;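 note: firefly luciferase made from a UUG start codon reports start codon fidelity; reporter light over untreated wells divided by growth signal over untreated wells; some hits fall short of that in this replicate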
eIF4H FP inh retest – also measured in eIF4H FP inh; calls as there; inhibition, %; compound at 20 µM; confirmation average;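 mean of two retest wells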
PABP polyA inh retest – second read-out of PABP polyA inh, no call of its own (marks repeat the call); inhibition, %; compound at 20 µM; confirmation repeats;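 mean of two retest wells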
MT1-MMP act inh RFP – second read-out of MT1-MMP act inh, no call of its own (marks repeat the call); RFP signal change, %; measured here: RFP expression control read;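 0 = vehicle wells; hits needed this value within 50% of zero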
Active calls of the source: *; i = inactive; ? = inconclusive; . = not tested or not shown. Some of the compounds tested. The share of hits here may be higher or lower than overall.

Start of the data: the first 18 entries, to show the layout:
SMILES	CSC inhib	Rce1 inhib	Env fusion inh	eIF4H FP inh	PABP polyA inh	MT1-MMP act inh	MT1-MMP act inh RFP	UUG fidelity	others
CC1=Nc2ccccc2/C1=C/c1c(N)n2c(S(=O)(=O)CC(C)C)nsc2nc1=O	.	i	7	10	2	3	4	.
CCOC(=O)C1=C(C)N2C(=C(C#N)[C@@H]1c1ccc(C(=O)OC)cc1)SC[C@@]2(O)C(C)(C)C	82*	i	-35	-3	-9	-13	-15	-8
COc1cc2c(cc1OC)C(C)N(C(=O)c1nccnc1C(=O)O)CC2 (stereo not drawn)	-6	i	-8	10	0	3	2	-1
COC(=O)C1C2C=CC3(CN(C4CCCC4)C(=O)C13)O2 (stereo not drawn)	-3	i	-8	-4	-9	1	-4	-14
Cn1c(NCc2ccc(Cl)cc2)nc2ccccc21	-8	i	-12	-4	7	1	1	-16
COc1ccc(/C=C/c2c([N+](=O)[O-])c(=O)n(C)c(=O)n2C)c(OC)c1OC	3	i	16	-4	-13	-5	-8	.
C=CCN1C(=O)N(c2ccccc2)C(=O)C1CC(=O)Nc1ccc(OC)cc1 (stereo not drawn)	-8	i	2	4	-1	3	0	-6
COc1ccc(C(C)(NC(C)=O)c2nc(-c3cccnc3)cs2)cc1 (stereo not drawn)	.	.	1	.	.	-4	0	-11
Cc1ccccc1NC(=O)CN1C(=O)S/C(=C\c2ccc(-c3cc(C(=O)O)ccc3C)o2)C1=O	.	i	23	?	?	-4	1	.
CC(C)CCN(C)C1CCN(S(=O)(=O)c2ccc(F)cc2)CC1	49	i	-4	4	-13	3	4	-5
Cn1nnnc1SCC(=O)Nc1cccc(S(=O)(=O)N2CCCC2)c1	-11	i	-14	3	6	1	5	.
Cc1ccc(C)c(CN2C(=O)CSc3ccc(C(=O)NCC(C)CN4CCC(C)CC4)cc32)c1 (stereo not drawn)	.	i	-9	-6	0	3	2	.
NC(N)=NS(=O)(=O)c1ccc(NC(=S)Nc2ccc(F)cc2)cc1	4	i	-15	-10	-6	4	2	.
CN(C)Cc1ccccc1Sc1ccccc1Br	10	i	.	1	-3	8	9	-17
COc1cccc(CNC(=O)C2CCCN(c3cnccn3)C2)c1 (stereo not drawn)	-2	i	-4	.	.	2	4	-22
Cn1c(C(=O)NCc2ccc3c(c2)OCO3)cc2sccc21	15	i	-26	0	-3	-4	-5	-2
N=C(CC1CC(=O)NC(=O)C1)C1=C(O)CCCC1=O	-4	i	-3	-12	-3	-2	4	-15
Cc1cc(C)n2ncnc2n1	-3	i	-94	-4	6	5	2	-8

This part in full (from the top)
SMILES	CSC inhib	Rce1 inhib	Env fusion inh	eIF4H FP inh	PABP polyA inh	MT1-MMP act inh	MT1-MMP act inh RFP	UUG fidelity	others
CC1=Nc2ccccc2/C1=C/c1c(N)n2c(S(=O)(=O)CC(C)C)nsc2nc1=O	.	i	7	10	2	3	4	.
CCOC(=O)C1=C(C)N2C(=C(C#N)[C@@H]1c1ccc(C(=O)OC)cc1)SC[C@@]2(O)C(C)(C)C	82*	i	-35	-3	-9	-13	-15	-8
COc1cc2c(cc1OC)C(C)N(C(=O)c1nccnc1C(=O)O)CC2 (stereo not drawn)	-6	i	-8	10	0	3	2	-1
COC(=O)C1C2C=CC3(CN(C4CCCC4)C(=O)C13)O2 (stereo not drawn)	-3	i	-8	-4	-9	1	-4	-14
Cn1c(NCc2ccc(Cl)cc2)nc2ccccc21	-8	i	-12	-4	7	1	1	-16
COc1ccc(/C=C/c2c([N+](=O)[O-])c(=O)n(C)c(=O)n2C)c(OC)c1OC	3	i	16	-4	-13	-5	-8	.
C=CCN1C(=O)N(c2ccccc2)C(=O)C1CC(=O)Nc1ccc(OC)cc1 (stereo not drawn)	-8	i	2	4	-1	3	0	-6
COc1ccc(C(C)(NC(C)=O)c2nc(-c3cccnc3)cs2)cc1 (stereo not drawn)	.	.	1	.	.	-4	0	-11
Cc1ccccc1NC(=O)CN1C(=O)S/C(=C\c2ccc(-c3cc(C(=O)O)ccc3C)o2)C1=O	.	i	23	?	?	-4	1	.
CC(C)CCN(C)C1CCN(S(=O)(=O)c2ccc(F)cc2)CC1	49	i	-4	4	-13	3	4	-5
Cn1nnnc1SCC(=O)Nc1cccc(S(=O)(=O)N2CCCC2)c1	-11	i	-14	3	6	1	5	.
Cc1ccc(C)c(CN2C(=O)CSc3ccc(C(=O)NCC(C)CN4CCC(C)CC4)cc32)c1 (stereo not drawn)	.	i	-9	-6	0	3	2	.

Some of these compounds in order of count of non-hydrogen atoms, low to high:
SMILES	CSC inhib	Rce1 inhib	Env fusion inh	eIF4H FP inh	PABP polyA inh	MT1-MMP act inh	MT1-MMP act inh RFP	UUG fidelity	others
Cn1c(NCc2ccc(Cl)cc2)nc2ccccc21	-8	i	-12	-4	7	1	1	-16
COc1ccc(C(C)(NC(C)=O)c2nc(-c3cccnc3)cs2)cc1 (stereo not drawn)	.	.	1	.	.	-4	0	-11
Cc1ccccc1NC(=O)CN1C(=O)S/C(=C\c2ccc(-c3cc(C(=O)O)ccc3C)o2)C1=O	.	i	23	?	?	-4	1	.

The results go on.
SMILES	CSC inhib	Rce1 inhib	Env fusion inh	eIF4H FP inh	PABP polyA inh	MT1-MMP act inh	MT1-MMP act inh RFP	UUG fidelity	others
NC(N)=NS(=O)(=O)c1ccc(NC(=S)Nc2ccc(F)cc2)cc1	4	i	-15	-10	-6	4	2	.
CN(C)Cc1ccccc1Sc1ccccc1Br	10	i	.	1	-3	8	9	-17
COc1cccc(CNC(=O)C2CCCN(c3cnccn3)C2)c1 (stereo not drawn)	-2	i	-4	.	.	2	4	-22
Cn1c(C(=O)NCc2ccc3c(c2)OCO3)cc2sccc21	15	i	-26	0	-3	-4	-5	-2
N=C(CC1CC(=O)NC(=O)C1)C1=C(O)CCCC1=O	-4	i	-3	-12	-3	-2	4	-15
Cc1cc(C)n2ncnc2n1	-3	i	-94	-4	6	5	2	-8
O=C(NCCCN1CCCC1=O)c1ccc(CNS(=O)(=O)c2ccc(F)cc2)cc1	-11	i	.	-4	7	-1	3	-11
COc1cc(OC)cc(C(=O)NCc2cc(C)nc3ccccc23)c1	.	i	7	4	-6	8	1	.
O=C1CCN(C(=O)/C=C/c2ccccc2)c2ccccc21	-13	.	0	-12	-12	2	0	.
Cc1cc(C)nc(SCC(=O)Nc2ccc(N3CCOCC3)c(Cl)c2)n1	-8	.	.	-10	-11	-1	-23	-11
COC(=O)c1ccc2c(=O)n(NC(=O)C(c3ccccc3)c3ccccc3)c(=S)[nH]c2c1	-7	i	-1	3	2	1	1	-9
CCOC(=O)N1CCC(c2cc(=O)n3[nH]c(-c4ccccc4)cc3n2)CC1	-5	i	2	4	4	5	4	-11
O=C(O)C1CCCCC1C(=O)NCCc1cccc(Cl)c1 (stereo not drawn)	.	i	-84	-6	-2	1	-2	-6
O=C(COC(=O)c1ccc(Cl)nc1)NNC(=O)c1ccc(Br)cc1	-13	.	8	.	.	-1	2	-13
Cc1ccccc1OCC(=O)Nc1ccc2[nH]ncc2c1	-22	i	-359	6	-4	-2	-5	-13
CC(NC(=O)c1ccccc1Cl)c1ccc(-n2ccnc2)cc1 (stereo not drawn)	-6	i	-9	13	10	2	3	-23
C#CCOCCOCCOCCNc1nc(N2CCN(C(=O)[C@H]([C@@H](C)CC)n3cc(CCCN=C(N)N)nn3)CC2)nc(N2CCN(C(=O)[C@H]([C@@H](C)CC)n3cc(CCC(=O)O)nn3)CC2)n1	.	.	-64	.	.	0	2	17
O=C(Cc1ccccc1)NCc1ccncc1	2	i	3	-6	1	3	5	.
CCOC(=O)C1CC(c2ccccc2)=NNC1=O (stereo not drawn)	-5	i	-14	-1	4	-1	2	.
Cc1cccc(NC(=O)NCc2ccc3c(c2)cc(C)n3C)c1	-4	i	-13	55	27	46	57	2	eIF4H FP inh retest=-1;PABP polyA inh retest=1
COc1ccccc1CCCNC(=O)C1CCC(=O)N(CCN2CCOCC2)C1 (stereo not drawn)	-2	i	.	4	-10	-2	6	-5
